Screening results from PubChem.
Cruzain noTriton: cruzain (T. cruzi) inhibition without detergent; P25779; purified cruzain, Z-FR-AMC fluorescence, no detergent; Potency, µM, without a hit: max response, negative = inhibition, actives largely listed as inhibitors; hit rate 2.3% among 200,000;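 note: plate controls were enzyme without inhibitor for no effect and buffer without enzyme for full effect; nearly all actives have a fitted effect of over 40% in size; top concentration of the series not given in the record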
Target sequence (P25779 123-467 limits assumed): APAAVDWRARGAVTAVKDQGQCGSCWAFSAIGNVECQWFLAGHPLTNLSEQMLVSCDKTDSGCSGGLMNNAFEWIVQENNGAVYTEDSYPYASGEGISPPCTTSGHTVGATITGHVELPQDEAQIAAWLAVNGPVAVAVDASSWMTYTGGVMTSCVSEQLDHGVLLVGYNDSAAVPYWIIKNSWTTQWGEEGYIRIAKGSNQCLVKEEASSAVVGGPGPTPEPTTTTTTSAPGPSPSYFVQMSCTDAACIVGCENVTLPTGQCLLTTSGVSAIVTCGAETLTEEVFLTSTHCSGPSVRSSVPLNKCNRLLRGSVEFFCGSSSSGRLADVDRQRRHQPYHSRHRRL
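Detergent-free condition (0.00005% Triton X-100) in acetate buffer pH 5.5 with DTT. 1.5 nM enzyme and compound were pre-mixed 15 min, then 2 uM Z-FR-AMC substrate added; reaction progress from fluorescence change between first and third reads (60 s).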
LASV entry inh: Lassa virus entry inhibition | hit rate 1.2% among 300,000 | Lassa virus pseudotype entry inhibition, cell reporter; control for the full effect not named in the record | Potency, µM (doses to about 37.9 µM), without a hit: at the top dose activity change, negative = inhibition, hits mostly inhibitors | AID 540256; active means well fitted inhibition curve with a large enough effect; inconclusive means small, poorly fitted or top-dose-only effect, or effect the other way; inactive means flat fitted curve, though single readings scatter; tested in HEK293 cells; note: % is set by controls: 0 for no effect and ±100 for the full control effect; nearly all actives have a fitted effect of over 50% in size; luciferase read-out
SARS PLP yeast: blocks SARS-CoV papain-like protease in a yeast assay. S. cerevisiae expressing SARS-CoV PLpro, growth rescue; control for the full effect not named in the record. Potency, µM (highest dose often 32.9 µM), inactives show top-dose activity, positive = growth rescue. hit rate 0.19% among 330,000. AID 485353; active means well fitted rising curve with a large enough effect; inconclusive means small, poorly fitted or top-dose-only effect; inactive means no such curve, though single readings can be large or run the other way; note: 0% is about no effect; nearly all actives have a fitted effect of over 55% in size; growth read by luminescence after 48 h
RE007 growth inh: less growth of the S. pombe RE007 Vpr strain | S. pombe RE007 Vpr strain, BacTiter-Glo ATP luminescence, 24 h; control for the full effect not named in the record | Potency, µM (highest dose often 92.2 µM), without a hit: top-dose activity change, negative = less growth | hit rate 0.21% among 360,000; active = well fitted falling curve with a large enough effect; inconclusive = small, poorly fitted or top-dose-only effect; inactive = no such curve, though single readings can be large or run the other way;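 note: % is set by controls: 0 for no effect and ±100 for the full control effect; nearly all actives have a fitted effect of over 50% in size; the assay follows cell death caused by Vpr and the record does not say whether a fall means rescue or toxicity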
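Fission yeast strain RE007, carrying one chromosomally integrated HIV-1 vpr copy, was seeded at OD 0.01 in PMG+AL medium with 23 nL pinned compound. After 24 h at 30 °C and 99% humidity, viability was read by BacTiter-Glo luminescence.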
NS1 function inh: influenza NS1 inhibition. S. cerevisiae slowed by influenza A NS1, growth recovery by OD600. Potency, µM (highest dose often 46.1 µM), inactives show at the highest dose activity, positive = more growth. hit rate 0.4% among 270,000. AID 2326; active means well fitted rising curve with a large enough effect; inconclusive means small, poorly fitted or top-dose-only effect; inactive means no such curve, though single readings can be large or run the other way; note: nearly all actives have a fitted effect of over 50% in size
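Recovery from NS1-induced slow growth read by OD600 in budding yeast switched to galactose assay medium (pH 6.0, -URA) at 1:100 dilution. Compound 23 nl per well; the matching strain lacking NS1 serves as control.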
2A StopGo: FMDV 2A StopGo reporter, luciferase signal. human cells with a luciferase reporter of 2A StopGo recoding; control for the full effect not named in the record. AID 1159524. hit rate 1.2% among 410,000. Potency, µM (titrated, usually from 57.9 µM), for the others: at the top dose signal change, negative = less light; active = well fitted falling curve with a large enough effect; inconclusive = small, poorly fitted or top-dose-only effect; inactive = no such curve, though single readings can be large or run the other way; tested in HEK293T cells; note: % is set by controls: 0 for no effect and ±100 for the full control effect; nearly all actives have a fitted effect of over 45% in size; luciferase light after 4 h
MARV entry inh: Marburg virus entry inhibition. AID 540276. hit rate 1.8% among 300,000. Marburg virus pseudotyped entry inhibition, cell reporter; control for the full effect not named in the record; about a third of the inactives were read at about 46 µM. Potency, µM (highest dose often 37.8 µM), for inactives: top-dose activity change, negative = inhibition, hits mostly inhibitors; active = well fitted inhibition curve with a large enough effect; inconclusive = small, poorly fitted or top-dose-only effect, or effect the other way; inactive = flat fitted curve, though single readings scatter; tested in HEK293 cells; about a fifth of its hits are not listed in these tables; note: % is set by controls: 0 for no effect and ±100 for the full control effect; luciferase read-out
Cruzain inh Det: inhibitors of Trypanosoma cruzi cruzain with detergent; P25779; purified cruzain, Z-FR-AMC fluorescence, 0.01% Triton; Potency, µM, without a hit: max response, negative = inhibition, hits mostly inhibitors; hit rate 0.43% among 200,000; AID 1478;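 note: plate controls were neutral wells for no effect and buffer without enzyme for full effect; nearly all actives have a fitted effect of over 40% in size; top concentration of the series not given in the record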
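Detergent-containing run (0.01% Triton X-100) in acetate buffer pH 5.5 with 5 mM DTT: enzyme at 1.5 nM final, 15 min compound preincubation at room temperature, then 2 uM Z-FR-AMC substrate. Activity taken as 60 s fluorescence increase at 360/450 nm.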
* marks the source's active call; other numbers are inactive results; ? = inconclusive; / = not tested or not shown; & = joins results of further samples; [ ] = dose if it differs, or a comment. Unless noted, calls come from the whole dose curve; as a rule, active = well fitted curve in the direction sought with a large enough effect; inconclusive = small, poorly fitted or top-dose-only effect, or another doubt; inactive = no such curve, though single readings can be large; an effect the other way counts as inactive or inconclusive. Potency is the fitted concentration of half-maximal effect. Compounds were not picked by outcome. About 4.6% of those tested had a hit in this group.

#	canonical_smiles	Cruzain inh Det	LASV entry inh	NS1 function inh	2A StopGo	Cruzain noTriton	MARV entry inh	RE007 growth inh	SARS PLP yeast
1	O=C(CSc1nn(-c2ccc(F)cc2)c(=S)s1)NC(=O)NCc1ccco1	-2.7%	-7%	5%	/	-23%	3%&2%	6%	1%
2	Cc1ccc(S(=O)(=O)NCCC(=O)NC2CCCCC2)cc1	/	?	/	5%	/	-9%	15%	2%
3	O=C(CN1C(=O)COc2ccccc21)N(CCCN1CCOCC1)CC1CC=CCC1 (stereo not drawn)	-3.5%	-4%	0%	6%	-2%	3%	10%	3%
4	Cc1nc2ccccc2c(=O)n1-c1ccc(F)c(NS(=O)(=O)c2ccccc2F)c1	/	8%	/	-19%	/	-4%	2%	1%
5	c1ccc2[nH]c(N3CCOCC3)nc2c1	-0.8%	-1%	-1%	14%	-7%	13%	5%	44%
6	COc1ccc(C)cc1S(=O)(=O)N1CCC(C(=O)N2CCN(C)CC2)CC1	-1.1%	3%	-4%	-4%	3%	-2%	/	4%
7	COc1cc(NC(=O)COC(=O)/C=C/c2c(C)nn(C3CCS(=O)(=O)C3)c2Cl)cc(OC)c1OC (stereo not drawn)	0.2%	-6%	-2%	-22%	2%	-1%	4%	3%
8	CC[N+](C)(CC)CCCOC(=O)C(O)(c1ccccc1)C1CCCCC1 (stereo not drawn)	-8.2%	4%	-6%[9.22 µM]	-15%	-3%	4%[46.1 µM]	10%	0%
9	COc1ccc(/C=C/CN2CCC(Oc3ccc(C(=O)N4CCCCC4)cc3)CC2)cc1	/	-4%	-4%	3%	/	?	0%	-6%
10	COc1ccc2c(=O)c(C(=O)O)c(-c3ccc4c(c3)OCO4)n(C)c2c1	-2.4%	8%	-13%	-14%	-8%	6%	-2%	-4%
11	Cc1csc(NC(=O)c2ccc(C)c([N+](=O)[O-])c2)n1	-3.5%	?	9%	-48%	11%	?	-22%	-38%
12	Cc1ccc(C(NC(=O)Nc2ccccn2)C(Cl)(Cl)Cl)cc1F (stereo not drawn)	/	2%	-8%	-27%	/	?	0%	8%
13	Cc1ccc(S(=O)(=O)c2nc(-c3ccco3)oc2SCc2ccc(F)cc2)cc1	-21%	-29%[46.1 µM]	/	-19%	1%	-1%[46.1 µM]	/	/
14	CCNC(=S)NCc1ccc(OC)c(OC)c1	/	1%	7%	16%	/	-8%[46.1 µM]	-6%	0%
15	CCC1(c2ccccc2)NC(=O)N(CC(=O)NNC(=O)c2ccc(F)cc2)C1=O (stereo not drawn)	/	4%	/	-21%	/	?	2%	-20%
16	CC1Sc2ccc(S(=O)(=O)CCC(=O)N3CCCC3)cc2NC1=O (stereo not drawn)	/	18%[46.1 µM]	-7%	-2%	/	13%[46.1 µM]	-15%	?
17	CC(C)CN(C(=O)CN1C(=O)NC(c2ccccc2)(c2ccccc2)C1=O)C1CCS(=O)(=O)C1 (stereo not drawn)	/	?	/	?	/	-2%	-22%	12%
18	COc1ccc(C2(C)NC(=O)N(CC(=O)NC3(C#N)CCCCC3)C2=O)cc1 (stereo not drawn)	/	/	4%	10%	/	/	-5%	?
19	Cc1ccc(Cl)cc1NC(=S)N/N=C/c1cccc2ccccc12	/	?	8%	-10%	/	?	-1%	0%
20	C#CCNc1nc(C(C)C)nc2c1nnn2Cc1ccccc1F	5.5%	-28%	0%	-21%	-5%	-1%	2%	0%
21	Nc1ccc2nc3n(c(=O)c2c1)CCC3	-19%	/	-3%	8%	-11%	/	-4%	2%
22	CS(=O)(=O)N(CCc1ccccc1)CC(=O)Nc1ccc(OCc2ccccc2)cc1	1.4%	?	-7%	?	8%	?	-1%	-19%
23	COC(=O)c1ccc2c(=O)n(CC3CCCO3)c(SCC(=O)Nc3ccccc3OC)nc2c1 (stereo not drawn)	-1.1%	10%	-32%	-2%	?	-5%	8%	-2%
24	CC(CC(=O)Nc1ccc(C(N)=O)cc1)c1ccccc1 (stereo not drawn)	-4.4%	1%	13%	-4%	1%	-12%	4%	-8%
25	CN1CCN(C2(CNC(=O)c3ccc(C(C)(C)C)cc3)CCCCC2)CC1	3.5%	6%[46.1 µM]	/	-13%	8%	?	/	/
26	CCOc1ccc(CNC(=O)C2Cc3cc(S(=O)(=O)N4CCCCC4)ccc3N2C(C)=O)cc1 (stereo not drawn)	/	/	18%	-16%	/	/	-4%	-1%
27	C#CCOCCOCCOCCNc1nc(N2CCOCC2)nc(N2CCN(C(=O)[C@H](Cc3ccc(O)cc3)n3cc([C@@H](N)CC(C)C)nn3)CC2)n1	/	/	1%	54%[activator]	/	/	6%	0%
28	Cc1cc(C(=O)CSc2nnc(C3COc4ccccc4O3)n2C)c(C)n1-c1ccc(F)cc1 (stereo not drawn)	-0.1%	0%	-32%	-18%	-6%	8%	10%	-2%
29	COc1nc(N(C)C)nc(-n2nnc(C(C)=O)c2C)n1	-3.7%	-8%	-5%	3%	0%	15%	7%	9%
30	Cc1ccc(S(=O)(=O)Nc2cc(C(=O)N3CCOCC3)ccc2N2CCCCC2)cc1	-2.3%	-13%	-5%	58%[activator]	?	-2%&-2%	0%	-2%

An excerpt of these results, in transposed form:
7	COc1cc(NC(=O)COC(=O)/C=C/c2c(C)nn(C3CCS(=O)(=O)C3)c2Cl)cc(OC)c1OC (stereo not drawn)
8	CC[N+](C)(CC)CCCOC(=O)C(O)(c1ccccc1)C1CCCCC1 (stereo not drawn)
9	COc1ccc(/C=C/CN2CCC(Oc3ccc(C(=O)N4CCCCC4)cc3)CC2)cc1
10	COc1ccc2c(=O)c(C(=O)O)c(-c3ccc4c(c3)OCO4)n(C)c2c1

compound no.	7	8	9	10
Cruzain inh Det	0.2%	-8.2%	/	-2.4%
LASV entry inh	-6%	4%	-4%	8%
NS1 function inh	-2%	-6%[9.22 µM]	-4%	-13%
2A StopGo	-22%	-15%	3%	-14%
Cruzain noTriton	2%	-3%	/	-8%
MARV entry inh	-1%	4%[46.1 µM]	?	6%
RE007 growth inh	4%	10%	0%	-2%
SARS PLP yeast	3%	0%	-6%	-4%

(listing goes on)
#	canonical_smiles	Cruzain inh Det	LASV entry inh	NS1 function inh	2A StopGo	Cruzain noTriton	MARV entry inh	RE007 growth inh	SARS PLP yeast
31	Cc1nc2cc(-c3ccc(Cl)cc3)nn2c(C)c1CCC(=O)N1CCC2(CC1)OCCO2	/	-29%	/	?	/	-5%	1%	/
32	COC(=O)c1ccccc1NC(=O)CN(C)S(=O)(=O)c1ccc(OC)c(C)c1	3.8%	3%	-33%	?	28%	0%&-5%	10%	-10%
33	COc1ccc(OCCCC(=O)OC(C)C(=O)Nc2cccc(C(C)=O)c2)cc1 (stereo not drawn)	/	1%	-15%	0%	/	1%	2%	2%
34	Cc1cc(NC(=O)CSc2n[nH]c(=O)[nH]c2=O)ccc1Br	/	/	8%	-25%	/	/	-11%	1%
35	O=C(COC(=O)/C=C/c1cccc(F)c1)NC(=O)NC1CCCC1	/	-16%	/	-20%	/	18%	-13%	0%
36	Cc1nn(CC(=O)NNC(=S)Nc2ccccc2)c(C)c1[N+](=O)[O-]	3.1%	-2%	15%	-3%	-3%	10%	6%	3%
37	COc1ccc(CN(CCC#N)C(=S)NC(=O)c2ccccc2)cc1	-1.8%	4%	-3%	-11%	-4%	?	16%	18%
38	O=C(NCCC1=CCCCC1)C1CCN(C(=O)c2ccc(Cl)cc2)CC1	1.4%	-29%	-18%	/	18%	12%	2%	2%
39	Cc1ccc(C2=NC(C)(C)N3C2C3c2ccc([N+](=O)[O-])cc2)cc1 (stereo not drawn)	-5.9%	-1%	13%	-18%	-13%	6%	-14%	-4%
40	O=C(CCc1nc2sc3c(c2c(=O)[nH]1)CCCC3)N1CCN(c2ccccc2)CC1	/	9%	/	-21%	/	-11%[46.1 µM]	52%	2%
41	COC(CNS(=O)(=O)c1cc2c3c(c1)CCN3C(=O)CC2)OC	/	9%[46.1 µM]	-1%	10%	/	6%[46.1 µM]	3%	-4%
42	Cc1ccc(-n2c3nc(=O)[nH]c(=O)c-3cc3c(Cl)cccc32)cc1	-0.8%	-25%[46.1 µM]	/	?	5%	/	/	/
43	CCC(C(=O)NCCc1cc(OC)ccc1OC)n1nc(C)c2sc3ccccc3c2c1=O (stereo not drawn)	-5.9%	1%[46.1 µM]	/	-19%	-22%	4%[46.1 µM]	/	/
44	CCOc1ccc(C(C(=O)NC2CCCC2)N(C(=O)c2snc(C(N)=O)c2N)c2cccc(O)c2)cc1 (stereo not drawn)	/	?	-2%	-18%	/	?	8%	1%
45	O=C(/C=C/Nc1ccc(OC(F)(F)F)cc1)C(F)(F)F	7.7%	17%	6%	?	7%	19%	10%	1%
46	CCOC(=O)c1oc2ccc(S(=O)(=O)n3nc(-c4ccc(OC)cc4)cc3N)cc2c1C	1.6%	13%	?	?	?	22%	3%	3%
47	CC(C)=CC(=O)OCC(=O)Nc1cc([N+](=O)[O-])ccc1F	-2.2%	10%	-2%	-16%	1%	-13%	-11%	16%
48	O=C(COC(=O)c1cc(NS(=O)(=O)c2cccs2)ccc1O)Nc1ccc(F)c(F)c1F	/	/	/	-7%	/	-20%[46.1 µM]	-15%	4%
49	Clc1ccc(CSc2nnc(-c3ccc4c(c3)OCO4)o2)cc1	0.9%	1%	-64%	1%	-9%	?	0%	-6%
50	Cc1c2cnn(CC(=O)NCCCN3CCCCC3)c(=O)c2c(C)n1Cc1ccccc1	/	/	7%	0%	/	/	-12%	-2%
